VACV mCherry inh = inhibitors of vaccinia virus infection (mCherry reporter signal). Vaccinia virus mCherry reporter infection, fluorescence; about a quarter of the inactives have no number. Potency, µM (series often up to 36.5 µM), for inactives: at the highest dose activity change, negative = inhibition, actives largely listed as inhibitors. hit rate 0.63% among 310,000. AID 720579; active = well fitted inhibition curve with a large enough effect; inconclusive = small, poorly fitted or top-dose-only effect; inactive = no such curve, though single readings can be large or run the other way; tested in A549 cells; note: nearly all actives have a fitted effect of over 35% in size; inactives centre near -10
VACV Venus inh = vaccinia inhibition (Venus reporter); AID 720580; hit rate 0.46% among 330,000; Vaccinia virus Venus reporter expression, fluorescence; Potency, µM (doses to about 36.5 µM), without a hit: at the highest dose activity change, negative = inhibition, hits mostly inhibitors; active means well fitted inhibition curve with a large enough effect; inconclusive means small, poorly fitted or top-dose-only effect; inactive means no such curve, though single readings can be large or run the other way; tested in A549 cells; note: nearly all actives have a fitted effect of over 30% in size; inactives centre near -10
The depositor's hits bear a star; i = inactive; ? = inconclusive; / = not tested or not shown; & = joins results of further samples; [ ] = another dose, or the depositor's remark. % is set by controls: 0 for no effect and ±100 for the full control effect; potency is the fitted concentration of half-maximal effect.

Results follow in this order: VACV Venus inh	VACV mCherry inh
- Cc1ccc(NC(=O)CO/N=C(\N)c2nonc2N)cc1C
 : 0%	i
- Cc1cc2nc(C3CCN(Cc4nnnn4Cc4ccccc4)CC3)[nH]c2cc1C
 : ?	-21%
- O=C(NCC1CCN(C(=O)c2c(F)c(F)c(F)c(F)c2F)CC1)c1c(F)c(F)c(F)c(F)c1F
 : ?	?
- CC(=O)Nc1ccc(C(=O)OCC(=O)N(c2ccccc2)C2CCCCC2)cc1
 : -6%	6%
- CCCCNC(=O)C1CC(c2cccc([N+](=O)[O-])c2)=NO1 (centres undefined)
 : -7%	?
- COCCn1c(C)cc(O)c(C(c2ccccc2)N2CCCCC2)c1=O (centres undefined)
 : 8%	4%
- CCOC(=O)C1CCN(/C=C2/C(=O)NC(=O)N(c3ccc(OCC)cc3)C2=O)CC1
 : 4%	3%
- Cc1ccc(S(=O)(=O)N2CCOCC2)cc1C(=O)NCc1ccc2c(c1)OCO2
 : -14%	i
- COc1ccccc1N(C)S(=O)(=O)c1ccc(C(=O)N(CC(N)=O)C(C)C)cc1
 : -9%	/
- O=C(CCN1C(=O)/C(=C\c2ccccc2Cl)SC1=S)N1CCN(c2ccccc2)CC1
 : ?	/
- Cc1cc(C)c(NC(=O)C2CC(=O)N(Cc3ccccc3)C2)c(C)c1 (centres undefined)
 : -4%	9%
- O=C(COC(=O)Cn1cnc2ccccc21)Nc1ccc(F)c(F)c1
 : -13%	-21%
- COc1ccc(S(=O)(=O)Nc2cc([N+](=O)[O-])ccc2OC)cc1
 : ?	?
- COc1cccc(CNC(=O)c2nn(C)c3c2CS(=O)(=O)c2ccccc2-3)c1
 : -9%	-6%
- COc1ccc(S(=O)(=O)N2CN(CCc3ccc(OC)c(OC)c3)c3nc4ccccc4nc32)cc1
 : -7%	i
- NNc1ncnc2c1cnn2-c1ccccc1
 : ?	/
- Cc1cccc(C2NC(=O)c3ccccc3N2)c1 (centres undefined)
 : -14%	-6%
- CCOc1cc(C(=O)NCCN2CCOCC2)cc(OCC)c1OCC
 : -9%	/
- CC12CC3CC(C1)CC(C(=O)NNC(=O)c1ccncc1)(C3)C2
 : -18%	i
- C/C(=N/NC(=O)CSc1ccccn1)c1ccc([N+](=O)[O-])cc1
 : -7%	-13%

(continued)
Results follow in this order: VACV Venus inh	VACV mCherry inh
- CCOc1ccc(NC(=O)CSc2nncc(=O)n2N)cc1
 : -8%	-14%
- CCOC(=O)C(CC)Sc1ccc2nnc(-c3cccnc3)n2n1 (centres undefined)
 : -12%&-14%	-9%&-6%
- Nc1n[nH]c(S(=O)(=O)CCCc2ccccc2)n1
 : -3%	-10%
- Cn1c(=O)c2cc(NC(=O)NCc3ccccc3)ccc2n1Cc1ccc(Cl)cc1
 : -23%	-2%
- CCC(=O)n1nc(NCc2ccc(OC)c(OC)c2)nc1NCc1ccc(OC)c(OC)c1
 : ?	/
- O=C(CSCCNS(=O)(=O)c1ccccc1)Nc1ccccc1
 : ?	/
- COc1cc(NC(=O)c2ccc(C(=O)Nc3cc(OC)c(Cl)cc3OC)cc2)c(OC)cc1Cl
 : 3%	9%
- Cc1noc(NS(=O)(=O)c2ccc(NC(=O)CSc3n[nH]c(-c4ccccc4)n3)cc2)c1C
 : -4%	-12%
- COc1ccc(CNC(=O)Cn2ccc([N+](=O)[O-])n2)cc1OC
 : 2%	i
- CC(C)c1nnc(NC(=O)c2c(O)c3cccc4c3n(c2=O)CCC4)s1
 : -12%	-23%
- O=C(CCc1n[nH]c(=O)[nH]c1=O)N/N=C/c1ccco1
 : -16%	-4%
- COc1cccc(N2CCN(S(=O)(=O)c3c(C)[nH]c(C)c3C(=O)N3CCCCC3)CC2)c1
 : -13%	-16%
- CCN(CC)CCNC(=O)C(=O)NCC(c1cccnc1)N1CCN(c2ccccc2)CC1 (centres undefined)
 : -9%	-9%
- O=C(Nc1ccc(Oc2ccccc2)cc1)C1CCCO1 (centres undefined)
 : -8%	-13%
- COc1ccc(C(C)=O)cc1COC(=O)CCC(=O)N(CC(C)C)c1c(N)n(CC(C)C)c(=O)[nH]c1=O
 : -11%	-2%
- Cn1c(NC(=O)CCC2CCCCC2)cc(=O)n(C)c1=O
 : -8%	-17%
- Cc1nn(-c2ccccc2)c(C)c1C(=O)Oc1ccccc1
 : -8%	-17%
- C[C@H](NC(=O)c1ncn2c1C(=O)NC[C@@H]2C)c1ccccc1
 : -24%	i
- COc1ccccc1NC(=O)C1=C(C)Nc2nc(-c3ccco3)nn2C1c1cccc(C)c1 (centres undefined)
 : -13%	-13%
- CCN(CC)CCOC(=O)c1ccc(NC(=O)CCn2c(=O)oc3ccccc32)cc1
 : -10%	-3%

The list goes on:
Results follow in this order: VACV Venus inh	VACV mCherry inh
- O=S(=O)(c1ccccc1)N1N=C(c2cccs2)CC1c1ccc(Br)cc1 (centres undefined)
 : -18%	-28%
- Cc1nn(Cc2ccccc2)c(Cl)c1/C=C/C(=O)OCC(=O)N1CCCC1=O
 : -2%	i
- COc1cc(Cl)ccc1OCc1cc(C(=O)NC(C)Cc2cnccn2)no1 (centres undefined)
 : -7%	i
- CCn1c(C)nc2cc(C(=O)N/N=C(\C)c3ccccc3O)ccc21
 : ?	?
- COC(=O)c1ccccc1NC(=O)COC(=O)C1CCCCC1
 : -8%	i
- COc1ccc(-n2nc(C(=O)NCC(=O)N3CCN(Cc4ccc5c(c4)OCO5)CC3)c3ccccc3c2=O)cc1OC
 : -22%	?
- Cc1ccccc1N(CC(=O)NCc1ccccc1)C(=O)CCC(=O)Nc1nccs1
 : -9%	-11%
- CC1(C)Cc2c(ccc3ccccc23)/C(=C/C(=O)N2CCCCC2)N1
 : -19%	/
- CCCCN(CC)c1nc(-c2ccncc2)nc2ccccc12
 : -26%	-28%
- CCC(C)NC(=O)C1CCC(CNS(=O)(=O)c2ccc(Cl)cc2)CC1 (centres undefined)
 : 0%	-10%
- COc1cc(OC)c(-c2oc3ccccc3c(=O)c2O)c(OC)c1
 : ?	?
- CCc1cc(=O)oc2cc(OC(C)C(=O)NCCCn3ccnc3)ccc12 (centres undefined)
 : -6%	0%
- S=C(c1ccccc1)N(c1ccccc1)c1ccccc1
 : -7%	-16%
- COc1ccc([N+](=O)[O-])cc1NC(=O)COC(=O)c1ccc(O)cc1
 : -11%	i
- CCn1cnc2cc(NCc3ccc(Cl)cc3)ccc21
 : -4%	?
- O=C(N/N=C/c1ccco1)C1CC(=O)N(c2ccccc2)C1 (centres undefined)
 : 0%	-5%
- COc1ccc(N(CC(=O)Nc2cc(C)ccc2C)S(=O)(=O)c2c(C)[nH]c(=O)[nH]c2=O)cc1
 : -9%	-15%
- O=C1c2ccccc2C(c2nc3ccccc3[nH]2)N1c1ccccc1 (centres undefined)
 : 4%	43%[activator]
- O=C(CCl)NCCNC(=O)c1cc(OCC(F)(F)F)ccc1OCC(F)(F)F
 : 2µM*	2µM*
- COc1cccc2nc3c(C(=O)NCCN(C)C)cccc3cc12
 : 4.5µM*	3.5µM*

Single values from the list.
VACV Venus inh with CCn1cnc2cc(NCc3ccc(Cl)cc3)ccc21 reads -4%
VACV Venus inh with COc1ccc([N+](=O)[O-])cc1NC(=O)COC(=O)c1ccc(O)cc1 reads -11%
VACV Venus inh with CCc1cc(=O)oc2cc(OC(C)C(=O)NCCCn3ccnc3)ccc12 (centres undefined) reads -6%

Part of the list above in a different format:
| SMILES | VACV Venus inh | VACV mCherry inh |
| --- | --- | --- |
| O=C1c2ccccc2C(c2nc3ccccc3[nH]2)N1c1ccccc1 (centres undefined) | 4% | 43%[activator] |
| O=C(CCl)NCCNC(=O)c1cc(OCC(F)(F)F)ccc1OCC(F)(F)F | 2µM* | 2µM* |

Further structures
Results follow in this order: VACV Venus inh	VACV mCherry inh
- CCN1CCN(C(=O)c2ccc3c(c2)N(Cc2cccc(Cl)c2)C(=O)c2ccccc2S3=O)CC1 (centres undefined)
 : -3%	-6%
- Cc1ccc2[nH]c(=O)c(CN(Cc3ccco3)Cc3nnnn3Cc3ccco3)cc2c1
 : -6%	21%
- CCCOc1ccc(C(=O)NNC(=O)c2cccc(S(=O)(=O)N3CCN(C(C)=O)CC3)c2)cc1OC
 : -8%	-14%
- OCCN(CCO)CC(O)Cn1c2ccccc2c2ccccc21 (centres undefined)
 : -13%	-9%
- COc1ccc(CCNC(=O)COC(=O)c2ncc(Cl)c(Cl)c2Cl)cc1OC
 : -12%	0%
- Cc1ccc(-n2ncc(C(=O)Nc3ccc4c(c3)OCCO4)c2C2CCN(C(=O)OC(C)(C)C)CC2)cc1C
 : -14%	-6%
- COCCCn1c(C)c(C(C)=O)cc(NC(=O)c2ccccc2)c1=O
 : -5%	i
- COc1ccc(C2c3c(oc4ccccc4c3=O)C(=O)N2CC2CCCO2)cc1 (centres undefined)
 : -13%	i
- Oc1c(C(c2cccc(Br)c2)N2CCCC2)sc2nc(-c3ccco3)nn12 (centres undefined)
 : -8%	5%
- COc1ccc(/C(C)=N/NC(=S)NCCc2ccccc2)cc1
 : -13%	-16%
- CCCCn1c(N)c(N(CC)C(=O)C2=COCCO2)c(=O)[nH]c1=O
 : -6%	-11%
- COc1cc(C2Nc3ccc4ncccc4c3C3=C2C(=O)CCC3)cc(OC)c1OC (centres undefined)
 : ?	-15%
- O=C(CN1CC=C(c2ccccc2)CC1)NC(=O)NCc1ccccc1
 : -7%	-6%
- O=[N+]([O-])c1cc(S(=O)(=O)NCCc2ccccn2)ccc1Cl
 : -16%	i
- CCc1cccc(C)c1NC(=O)C1CCCO1 (centres undefined)
 : -13%	/
- COc1cc(CNCCc2c[nH]c3ccccc23)cc(OC)c1
 : -17%	-5%
- COc1ccc(NC(=O)c2nnn(CC(=O)Nc3ccc4c(c3)OCO4)c2N)cc1OC
 : 1%	i
- Cc1ccc(S(=O)(=O)N2CCc3cc(C(=O)NCCc4ccccc4)ccc32)cc1
 : -18%	-19%
- O=C1CCN(CCCN2CCC(=O)N(Cc3ccccc3)C2=S)C(=S)N1Cc1ccccc1
 : -18%	i
- O=C(N/N=C/c1cc2c(c([N+](=O)[O-])c1)OCO2)c1ccncc1
 : -6%	i

The listing continues:
Results follow in this order: VACV Venus inh	VACV mCherry inh
- Nn1cnnc1SCC(=O)N(C1CCCCC1)C1CCCCC1
 : -8%	i
- COc1cc(S(=O)(=O)N2CCN(c3ccc(F)cc3)CC2)ccc1Cl
 : -20%	-11%
- CC(C)Sc1nnc(NC(=O)CCc2ccccc2)s1
 : -12%	-27%
- CC(NC(=O)C1CCCC1)C1CC2CCC1C2 (centres undefined)
 : -10%	-14%
- COCc1cc(C)nc(SCC(=O)Nc2cccc3cccnc23)c1C#N
 : ?	i
- CCN(CC)c1ccc(NC(=O)c2cc(C)nc3c2c(C)nn3-c2ccc(C)cc2)c(C)c1
 : 1%	-12%
- O=C(CNC(=O)c1ccc(F)cc1)NCc1ccc(S(=O)(=O)N2CCOCC2)cc1
 : -3%	-11%
- Cc1cc(C)c2c(c1)c1nnc(SCCN3CCCCC3)nc1n2C
 : -17%	i
- Cc1ccnc2nc(C(=O)OCC(=O)N3CC(C)CC(C)C3)nn12 (centres undefined)
 : -1%	-18%
- CCOC(=O)CN1C(=O)C(O)=C(C(C)=O)C1c1ccccc1 (centres undefined)
 : -15%	/
- Cc1cc(C)c(NC(=O)CSc2nc(=O)n(CCN3CCOCC3)c3c2CCC3)c(C)c1
 : 1%	-9%
- O=C(COc1coc(CN2CCN(c3ccccc3)CC2)cc1=O)NC1CCCC1
 : -10%	-12%
- CCOc1ccc(NC(=O)Nc2ccccc2SC)cc1
 : -11%	-2%
- Cc1cc(C)c(NC(=O)C2CCN(S(=O)(=O)c3c(C)noc3/C=C/c3ccccc3F)CC2)c(C)c1
 : -9%[7.34 µM]	-10%[7.34 µM]
- CCc1[nH]nc2c1C(c1ccc(C)o1)C(C#N)=C(N)O2 (centres undefined)
 : -7%	2%
- Cn1c(COc2ccccc2)nnc1SCc1nc2ccccc2[nH]1
 : -26%	-14%
- COc1cc(OC)c(C=NNC(=S)NC23CC4CC(CC(C4)C2)C3)c(OC)c1
 : -12%	i
- Cc1cc(C(=O)OCC(=O)NC2CC2)ccc1[N+](=O)[O-]
 : -10%	-14%
- CC(=O)C1=C(C)Nc2ncnn2C1c1cccc(OCc2ccccc2)c1 (centres undefined)
 : -16%	i
- Cc1cccc(C)c1NC(=O)CN(C)C(=O)c1cccc(S(=O)(=O)N2CCN(C)CC2)c1
 : -3%	-12%

(more compounds)
Results follow in this order: VACV Venus inh	VACV mCherry inh
- CCNC(=S)NNC(=O)c1ccncc1
 : -7%	i
- Cc1csc(NC(C)c2nc3cc(Cl)c(Cl)cc3n2CCCO)n1 (centres undefined)
 : -20%	-23%
- COc1cc(C(=O)N2CCN(c3cccc(C(F)(F)F)c3)CC2)ccc1OCC(=O)N1CCOCC1
 : -19%	?
- Cc1cccc(-n2c(C)c(-c3ccccc3)[nH]c2=S)c1
 : -15%	-17%
- O=C(c1ccc(-c2cccc(Cl)c2)o1)N1CCN(c2ccc([N+](=O)[O-])cc2)CC1
 : 2%	-10%
- O=C1S/C(=C/c2ccccc2F)C(=O)N1CCN=C1NS(=O)(=O)c2ccccc21
 : -23%	-11%
- COc1ccc(C(=O)/C=C/Nc2ccc(S(=O)(=O)Nc3cc(OC)nc(OC)n3)cc2)c(OC)c1
 : -7%	-12%
- O=C(NCCNC(=O)c1cccc(O)c1)c1cccc(O)c1
 : -4%	-20%
- COc1ccc(S(=O)(=O)N2CCC(C(=O)NCC3CCCO3)CC2)cc1OC (centres undefined)
 : -3%	0%
- COc1cccc(NC(=O)CSC2=Nc3ccccc3C3=NC(CC(=O)NCc4ccccc4OC)C(=O)N23)c1 (centres undefined)
 : -11%	-7%
- CCOc1ccc(CNn2cnnc2)cc1
 : -19%	i
- O=S(=O)(c1ccc(N2CCCC2)nc1)N1CCOCC1
 : -17%	/

Bioassay records as filed in PubChem BioAssay.
